MgrA-DNA mod = alters Staphylococcus aureus MgrA binding to DNA | fluorescence polarization | inhibition, %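 (about 10 µg/mL by stock and volumes)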 | actives 0.13% (n = 84,000);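 active means above 50% in either of two replicates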;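 further: 0% = protein plus DNA without compound and 100% = DNA alone without protein; higher means less MgrA bound to DNA so lower polarization; one replicate is shown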
Sa helicase inh = S. aureus DNA helicase inhibition; purified S. aureus helicase, fluorescence unwinding assay; about half of the hits fall short of the stated cut; inhibition, %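 (tested at about 80 µM)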; actives 0.05% (n = 120,000); AID 485395;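 active means both duplicates at 50% or more, or one of them with a favoured structure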;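 further: 0% = mean of negative control wells and 100% = mean of positive control wells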
Starred values were filed as active, the others as inactive; . = not tested or not shown; & = joins results of further samples. An excerpt (hit frequency here may not be typical).

MgrA-DNA mod,Sa helicase inh,canonical_smiles
.,-4.0,O=C(c1ccc2c(c1)OCCO2)N1CCC(c2nc3ccccc3o2)CC1
-0.3,.,NC(=NC(=O)CCn1c(=O)oc2ccccc21)c1ccc(Cl)cc1
.,-33.0,Cc1cccc(Cl)c1NC(=O)N1CCCN(c2ccc(C(F)(F)F)cn2)CC1
0.6,-12.0,O=C(Cc1ccccc1)N1CCN(S(=O)(=O)c2ccc(Br)cc2)CC1
-1.8,-5.0,CC(CNC(=O)c1cccc(Nc2nc3ccccc3n3cnnc23)c1)c1ccccc1 (centres undefined)
1.2,0.0,Cn1c(=S)n(CN2CCC(c3ccccc3)CC2)c2ccccc21
-2.2,.,CC(=O)Nc1ccc(C(F)(F)F)cc1Cl
.,-6.0,CC(OC(=O)C1CCN(S(=O)(=O)c2cccs2)CC1)C(N)=O (centres undefined)
.,-5.0,N#Cc1c(F)cccc1N1CCN(c2ccc(O)cc2)CC1
.,24.0,C=CCn1c(SCC(=O)NC(C)(C)C)nnc1-c1ccco1

Following part.
MgrA-DNA mod,Sa helicase inh,canonical_smiles
0.9,-6.0,CCOc1ccc(OCC)c(S(=O)(=O)n2cnc3cc(C)c(C)cc32)c1
-0.6,0.0,CC(Sc1ncc(S(=O)(=O)c2ccccc2)c(N)n1)C(=O)Nc1ccccc1 (centres undefined)
2.5,7.0,Oc1cccc(C=Nc2ccc(OC(F)(F)F)cc2)c1O
1.1,-19.0,COc1ccc(-c2csc(NC(C)=O)n2)cc1C
.,16.0,O=c1[nH]c(-c2cccnc2)nc2ccccc12
.,13.0,Cc1ccc(-c2nn(CCC(=O)O)cc2CCC(=O)O)cc1
.,-6.0,NNC(=O)C1(O)c2ccccc2-c2ccccc21
.,-6.0,Cn1c2ccccc2c2nnc(SCC(=O)OCN3C(=O)c4ccccc4C3=O)nc21
.,-2.0,CCOC(=O)c1c(NC(=O)CSc2nnc(N)s2)sc2c1CCCC2
0.7,-5.0,COC(=O)CN(C#N)c1nc(SC)nc(N(C)C)n1

(next part)
MgrA-DNA mod,Sa helicase inh,canonical_smiles
.,-3.0,Cc1ccc2c(c1)NC(SCC(=O)NC(C)C)=NS2(=O)=O
.,4.0,OC(c1cn2cc(-c3ccccc3)nc2s1)(C(F)(F)F)C(F)(F)F
-1.4,4.0,C=Cn1c(C(=O)O)ccc1-c1ccc(OC)cc1
0.9,.,COc1cccc(NC2=C(C#N)C(=O)NC(c3cccc(OC)c3O)S2)c1 (centres undefined)
-1.1,6.0,C=CCN1C(=O)CC(Nc2ccc(F)cc2)C1=O (centres undefined)
-0.5,23.0,COc1ccc(-c2oc3ncn(CCO)c(=N)c3c2-c2ccc(OC)cc2)cc1
.,-10.0,CC1CCN(S(=O)(=O)c2ccc3c(ccn3CCC(=O)NC(C)C)c2)CC1
.,15.0,O=C(CN1NS(=O)(=O)c2ccccc2C1=O)Nc1ccccc1OC(F)F
0.8,.,OCCN1CCN(c2nc3ccc(Cl)cc3s2)CC1
-2.5,.,CSC(=NCC1CC1)NC(C)(C)C

Continuation.
MgrA-DNA mod,Sa helicase inh,canonical_smiles
.,-21.0,C=C1C2(C(N)=O)CCC(C2)C1(C)C (centres undefined)
.,-1.0,Nn1c(SCC(=O)NC2CCCC2)nnc1C1COc2ccccc2O1 (centres undefined)
.,4.0,C=CCn1c(=O)n(CC=C)c2cc3n[nH]nc3cc21
-1.4,0.0,CCNS(=O)(=O)c1ccc(NC(=O)Nc2cccc(OC)c2)cc1
.,9.0,COC(=O)c1ccc(/C=N/OCC(=O)N(C)C2CCCCC2)cc1
-0.8,.,Cc1ccc2cccc(Cl)c2n1
.,-7.0,Cc1nc2ccccc2c2oc(C(=O)NC3CCN(Cc4ccccc4)CC3)cc12
-8.3,-2.0,CCC(=O)Nc1ccc2nc(C)n(Cc3ccccc3)c(=O)c2c1
-2.8,.,Fc1ccc(-c2csc(-c3ccsc3)n2)cc1
-2.9,.,c1ccc(Nc2ncnc3sc(-c4ccccc4)cc23)cc1

Other records.
MgrA-DNA mod,Sa helicase inh,canonical_smiles
1.2,-2.0,c1ccc(Nc2c3c(nc4nncn24)CCC3)cc1
-2.5,6.0,CS(=O)(=O)N(CC(=O)N1CCc2ccccc2C1)c1ccc(F)cc1
.,22.0,C/C(CCc1oc2ccc(C)cc2c1-c1ccc(C)o1)=N\O
-2.2,.,O=C(O)CSCC(=O)N1CCN(c2nc(-c3ccccc3)ns2)CC1
.,-3.0,O=C(/C=C1\SC(=O)NC1=O)Nc1ccccc1C(=O)O
.,1.0,Cc1ccc(C)c(C(=O)CN2C(=O)c3ccccc3C2=O)c1
.,12.0,CCC1CN(C(=O)N2CCC(C(=O)NC)CC2)c2ccccc2O1 (centres undefined)
-0.7,8.0,CC(C)CNC(=O)c1ccc(COc2cc(Cl)ccc2Cl)o1
5.1,19.0,N#CCO/N=C(\c1ccccc1)c1ccncc1
.,-5.0,CCOC(=O)c1sc2c(c1C)C(c1cccs1)C1=C(CCCC1=O)N2 (centres undefined)

The listing continues:
MgrA-DNA mod,Sa helicase inh,canonical_smiles
.,2.0,O=C(COC(=O)C1CCCCC1)Nc1ncccn1
.,-5.0,COc1cc2nc(CN3CCN(S(=O)(=O)c4ccc5ccccc5c4)CC3)[nH]c(=O)c2cc1OC
-1.5,5.0,COc1ccc(NC(=O)C2CCCCN2)cc1OC (centres undefined)
0.2,-17.0,C=CCn1c2ccccc2c2nnc(SC(CC)C(=O)Nc3nc4c(s3)CCCC4)nc21 (centres undefined)
-0.6,9.0,O=C1c2ccccc2C(=O)N1/N=C/c1ccccc1
7.1,13.0,COc1ccc(C)cc1S(=O)(=O)N(C)CC(N)=O
.,13.0,Cc1nc2ccc(NC(=O)C3CCCN3S(=O)(=O)c3cccs3)cc2s1 (centres undefined)
4.2,.,COCCN(CCOC)S(=O)(=O)c1ccc(C(=O)Nc2nc3ccc(OC)cc3s2)cc1
8.5,.,COc1cc(C=C2C(=O)NC(=O)NC2=O)cc(Cl)c1OCCOc1cccc(C)c1
.,-10.0,COc1ccc(-c2cc(C(=O)NCc3cccs3)c(C(F)(F)F)o2)cc1

Additional entries
MgrA-DNA mod,Sa helicase inh,canonical_smiles
.,-14.0,CN(Cc1ccccc1)C(=O)CCn1c(=O)c2cccn2c2cccnc21
0.1,7.0,COCCN1C(=O)c2ccccc2C(C(=O)N2CCN(c3ccccn3)CC2)C1c1ccc(F)cc1 (centres undefined)
-1.3,.,O=S(=O)(Nc1cccc(-c2nnco2)c1)c1ccc(F)cc1F
4.7,.,CCN1C(=O)/C(=C2\SC(=S)N(c3ccc(Br)cc3)C2=O)c2ccccc21
.,3.0,Cc1ccc(CN2CCSc3ccc(C(=O)NCCCN4CCOCC4)cc32)cc1
.,-13.0,OCCCc1nc2ccccc2[nH]1
-7.8,10.0,Cc1ccc2c(c1)nnn2C1CCN(C(=O)N(c2ccccc2)c2ccccc2)CC1
.,-7.0,OCCNc1ncnc2c1c(-c1ccccc1)cn2-c1ccccc1
-0.9,10.0,CN(Cc1ccccc1)S(C)(=O)=O
-0.2,2.0,OCCNc1nc(-c2ccccc2)c(-c2ccccc2)s1

Remaining list, next part:
MgrA-DNA mod,Sa helicase inh,canonical_smiles
-0.7,-16.0,Cn1c(O)c(C=Nc2ccccc2)c(=O)[nH]c1=S
-1.5,6.0,C=CCn1c(CCCO)n[nH]c1=S
0.1,7.0,O=C(CN1C(=O)c2ccccc2C1=O)NCc1ccccn1
.,7.0,CC(C)CC(=O)Nc1ccc(-c2cn3cccnc3n2)cc1
1.6,14.0,Cc1ccc2c(c1)c1c3n2CCN(C(=O)CN2CCN(C(=O)c4ccco4)CC2)C3CCC1 (centres undefined)
.,7.0,Cc1cc(C(=O)OCC(=O)N2CC(C)CC(C)C2)c(C)o1 (centres undefined)
1.1,6.0,O=C(/C=C/c1cccc(F)c1)OCc1c(Cl)nc2sccn12
.,17.0,Cc1ccc(NC(=S)N(CC(N)=O)C(C)C)cc1C
.,-21.0,COc1cccc(NC(=O)c2ccncc2)c1
.,43.0,CCOC(=O)C1CCN(c2cnn(-c3nc4ccccc4s3)c(=O)c2Cl)CC1

(next part)
MgrA-DNA mod,Sa helicase inh,canonical_smiles
-0.7,19.0,COc1ccc(N=Cc2ccc(-c3ccccc3)o2)cc1
.,16.0,CCn1c(COC(=O)CCc2c(C)nc3ncnn3c2C)nc2cc(S(=O)(=O)N(C)C)ccc21
.,0.0,COc1ccc(N2C(=O)/C(=C\c3ccco3)N=C2SCC(=O)c2c(N)n(C)c(=O)n(C)c2=O)cc1Cl
1.1,11.0,O=C(O)/C=C\C(=O)Nc1nn[nH]n1
-1.0&1.4,.,COc1ccc2c3c1O[C@H]1C[C@@H](O)C=C[C@@]31CCN(C)C2
-0.7,.,C/C(=N\N=C(/C)c1ccc(C)cc1C)c1ccc(C)cc1C
.,11.0,O=C(c1cccs1)C(NS(=O)(=O)c1ccccc1)NS(=O)(=O)c1ccccc1
-0.4,.,O=S(=O)(Cc1cccc(C(F)(F)F)c1)Cc1cccc(C(F)(F)F)c1
4.9,.,CCOC(=O)c1ccc(N2C(=O)C=C(C)C2=O)cc1
0.9,8.0,CCCCN(C)C(=O)C1c2ccccc2C(=O)N(C)C1c1ccc(OC)cc1 (centres undefined)

The listing continues:
MgrA-DNA mod,Sa helicase inh,canonical_smiles
7.5,9.0,Cc1ccc(C2=NNC3(S2)C(=O)Nc2ccccc23)cc1 (centres undefined)
-2.2,.,CCCCc1c(O)nc(SC)[nH]c1=O
8.3,12.0,CC1=C(C(=O)OC(C)C)C(c2ccccc2F)C(C#N)=C(N)O1 (centres undefined)
.,-27.0,COc1ccccc1Oc1ccc2c(c1)C(=O)N(c1cccc(O)c1)C2=O
.,-12.0,O=C1c2ccccc2CCC1Sc1nnc(-c2ccccc2)o1 (centres undefined)
.,28.0,CCCC12CN3CC(CCC)(CN(C1)C3C(O)C(O)C(O)C(O)CO)C2=O (centres undefined)
-1.4,.,CSc1nc(N)nc(-c2ccc(C(F)(F)F)cc2)n1
-4.9,16.0,Cc1ccc2c(c1)c1c3n2CCN=C3CCC1
0.3,-10.0,CC(C)(C(=O)Nc1ccccc1)N(Cc1ccccc1)C(=O)c1ccccc1
-1.2,-11.0,COc1cc(/C=c2\sc3n(c2=NCCO)C(c2ccccc2)C(c2ccccc2)=NN=3)ccc1O (centres undefined)

Profiles from above. Order of screens: MgrA-DNA mod, Sa helicase inh
Listed for Cc1ccc2c(c1)c1c3n2CCN=C3CCC1 : -4.9, 16.0
Listed for CCCC12CN3CC(CCC)(CN(C1)C3C(O)C(O)C(O)C(O)CO)C2=O (centres undefined) : ., 28.0
Listed for CCCCc1c(O)nc(SC)[nH]c1=O : -2.2, .

Remaining list, next part
MgrA-DNA mod,Sa helicase inh,canonical_smiles
3.5,14.0,NC(=O)c1ccc2nc(N)sc2c1
-0.6,7.0,CCNc1nc(OCC)nc(N2CCC(Cc3ccccc3)CC2)n1
1.2,9.0,CC1=C(C(=O)OC(C)C)C(c2ccccc2)NC(=S)N1 (centres undefined)
.,11.0,[O-]/[N+](=C\c1cccs1)c1ccc(Cl)cc1
2.9,-4.0,Oc1ccccc1/C=N/n1c2ccccc2c2ccccc21
-0.3,1.0,CS(=O)(=O)NCCSCc1ccccc1
1.4,2.0,Cc1cccc(N(CC(=O)Nc2c(C)n(C)n(-c3ccccc3)c2=O)S(C)(=O)=O)c1
.,-7.0,COc1ccc(CNC(=O)COC(=O)C2COc3ccccc3O2)cc1 (centres undefined)
-1.4,14.0,COc1ccc(C2C(C(=O)NCCCN3CCCCCC3)CCC(=O)N2c2ccc(OC)cc2)cc1 (centres undefined)
.,-10.0,O=C(Nc1ccccc1)Nc1ccc2ncccc2c1

Next part:
MgrA-DNA mod,Sa helicase inh,canonical_smiles
-0.7,.,COc1cccc(/C=[N+](/C)[O-])c1OCc1ccccc1
3.9,.,O=C(NCCO)C(c1ccccc1)c1ccccc1
.,-8.0,O=C(Cn1ncc(Cl)c(Cl)c1=O)NCCc1ccc(F)cc1
0.4,.,Cc1cc(NS(=O)(=O)c2ccc(NC(=O)CCC(=O)O)cc2)no1
0.0,4.0,CSc1ccccc1NC(=O)c1cnn2c(C(F)(F)F)cc(-c3ccco3)nc12
.,29.0,CCOC(=O)C1CCN(c2cc3c(cc2NC(=O)c2ccccc2)n(C)c(=O)n3C)CC1
.,-20.0,NC(=O)C1(S(=O)(=O)c2ccccc2)CC1
.,-14.0,Cc1cc(C)c(NC(=O)COC(=O)c2nccnc2N)c(Cl)c1
.,26.0,CCC1C/C(=C/c2ccco2)C(=O)/C(=C/c2ccco2)C1 (centres undefined)
-0.2,3.0,NC(Cc1ccc2nonc2c1)C(=O)O (centres undefined)

Continued; the last seven above are carried over.
MgrA-DNA mod,Sa helicase inh,canonical_smiles
0.4,.,Cc1cc(NS(=O)(=O)c2ccc(NC(=O)CCC(=O)O)cc2)no1
0.0,4.0,CSc1ccccc1NC(=O)c1cnn2c(C(F)(F)F)cc(-c3ccco3)nc12
.,29.0,CCOC(=O)C1CCN(c2cc3c(cc2NC(=O)c2ccccc2)n(C)c(=O)n3C)CC1
.,-20.0,NC(=O)C1(S(=O)(=O)c2ccccc2)CC1
.,-14.0,Cc1cc(C)c(NC(=O)COC(=O)c2nccnc2N)c(Cl)c1
.,26.0,CCC1C/C(=C/c2ccco2)C(=O)/C(=C/c2ccco2)C1 (centres undefined)
-0.2,3.0,NC(Cc1ccc2nonc2c1)C(=O)O (centres undefined)
.,-19.0,O=C(O)c1ccc(-c2ccc(CO)o2)cc1
9.7,.,CC1=NN(c2cccc(Cl)c2)C(=O)/C1=C\c1cc(Br)cs1
-1.2,.,FC(F)(F)c1cccc(NC(=S)Nc2cccc(C(F)(F)F)c2)c1
-0.4,.,CC(=O)Nc1ccc(S(=O)(=O)Nc2ccc(C#N)cc2)cc1
.,5.0,CCc1ccc(N2C(=O)Nc3ccccc3S2(=O)=O)cc1
-2.9,-2.0,CN(C)S(=O)(=O)c1ccc(OCC(=O)O)cc1
.,-11.0,Nc1nnc(SCc2nnc(-c3cccs3)o2)s1
-1.5,25.0,Cc1ccnc(NC2CCCCC2)c1
.,-14.0,NC(=O)c1ccccc1OCc1ccc(F)cc1Cl
2.6,-2.0,Nc1cc(=O)[nH]c2n[nH]c(=S)n12

Compound activity as filed in PubChem BioAssay.
